miR-21 reporter: raises the signal of a miR-21 reporter; Potency, µM (series often up to 38.3 µM), inactives show at the top dose reporter change, positive = more light; AID 2288; HeLa miR-21 FLuc reporter, luciferase, 48 h; 340,000 tested, under 10 active; active = well fitted rising curve with a large enough effect; inconclusive = small, poorly fitted or top-dose-only effect; inactive = no such curve, though single readings can be large or run the other way;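 also: % of control where 0% means no effect; miR-21 action dims this reporter so a rising signal means less miR-21 action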
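HeLa cells stably expressing CMV-driven firefly luciferase with a downstream miR-21 binding sequence, endogenously expressing miR-21, were treated with titrations (up to about 40uM final) for 48 hours at 37 degree Celsius. Luciferase luminescence was read after lysis.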
GLA inh pH 4.5: blocks human alpha-galactosidase A at pH 4.5; activity change, negative = inhibition, % at 105 µM; purified enzyme, 4-MU-alpha-Gal fluorescence, pH 4.5; 230,000 tested, under 10 active; AID 1467; inconclusive = small, poorly fitted or top-dose-only inhibition, or a rising curve; inactive = flat fitted curve, though single readings scatter; no compound was filed as active;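 also: 0% = full activity with enzyme and -100% = basal without enzyme; dose as in the result columns while the protocol names 77 µM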
Target sequence (P06280 whole entry, looked up): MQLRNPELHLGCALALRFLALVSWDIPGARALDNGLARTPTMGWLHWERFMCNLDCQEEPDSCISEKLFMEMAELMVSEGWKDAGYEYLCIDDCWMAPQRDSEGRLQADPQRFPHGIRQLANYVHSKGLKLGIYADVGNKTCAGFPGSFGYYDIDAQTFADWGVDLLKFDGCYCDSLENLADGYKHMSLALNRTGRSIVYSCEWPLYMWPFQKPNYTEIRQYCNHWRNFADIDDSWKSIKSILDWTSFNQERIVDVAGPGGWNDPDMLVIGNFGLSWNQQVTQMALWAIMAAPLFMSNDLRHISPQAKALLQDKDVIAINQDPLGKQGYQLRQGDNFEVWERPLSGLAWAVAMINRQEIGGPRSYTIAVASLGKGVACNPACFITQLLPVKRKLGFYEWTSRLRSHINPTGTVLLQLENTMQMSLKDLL
Rango release inh: inhibitors of RanGTP-induced Rango-importin beta complex dissociation; actives 0.071% (n = 340,000); Biochemical FRET Rango-importin beta, RanGTP-induced dissociation; AID 540253; Potency, µM (titrated, usually from 46.1 µM), for inactives: at the top dose activity change, negative = inhibition; active means falling FRET ratio curve, often poorly fitted, with flat reads before Ran was added; inconclusive means other falling curves, or compound fluorescence or quenching; inactive means flat or rising ratio curve;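 also: potency is read from the fitted curve at half-maximal effect; % of control where 0% means no effect; nearly all actives have a fitted effect of over 45% in size; -100% = wells without RanGTP and RCC1; the record marks most hits as doubtful in a second field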
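Compounds preincubate 5 min with complex of recombinant Rango and importin beta in PBS with 1 mM DTT. Ran (0.6 uM) loaded with 2 mM GTP plus 0.2 uM RCC1 starts dissociation; FRET is recorded 45 min later.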
Rango complex inh: prevents formation of the Rango-importin beta complex; Q14974; Rango CFP/YFP FRET sensor + importin beta, 45 min; Potency, µM (titrated, usually from 92.2 µM), inactives show at the top dose inhibition of complex formation; actives 0.031% (n = 340,000); active = rising FRET ratio curve, often small or poorly fitted; inconclusive = mostly compound fluorescence or quenching in the first reads; inactive = flat curves in all reads;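 also: potency is read from the fitted curve at half-maximal effect; 0% = DMSO wells and 100% = buffer wells lacking importin beta; nearly all actives have a fitted effect of over 15% in size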
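Inhibition scored from the CFP 486 nm/YFP 530 nm FRET ratio 45 min after adding 0.125 microM importin beta to 50 nM Rango biosensor preincubated 5 min with compound (room temperature, PBS with DTT, Tween-20, BSA). No-importin wells as positive control.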
* hit, by the source's call; ? = inconclusive; nt = not tested or not shown; [ ] = dose if it differs, or a comment.

entry	Rango release inh	Rango complex inh	GLA inh pH 4.5	miR-21 reporter	canonical_smiles
1	1%	2.0%	6	-1%	O=C(O)C1CCN(C(=O)c2ccco2)CC1
2	14%	?	nt	nt	CN(C)CCCNC(=O)C[C@H]1C[C@H](C(=O)N2CCOCC2)[C@@]2(CCC3CCCC3)c3[nH]c4cc(CCC(=O)N(C)C)ccc4c3CCN2C1=O
3	9%	-2.6%	-4	-17%	O=C(c1ccco1)N1CCN(c2ccccc2F)CC1
4	-1%	-0.1%	nt	-4%	COCC1CCN(C(=O)C2CCC(=O)N(Cc3ccc(Cl)cc3)C2)CC1 (configuration not stated)
5	-4%	-2.7%	7	-4%	Cn1c(=O)[nH]c(=O)c2c1nc(CN1CCN(c3cccc(Cl)c3)CC1)n2CCCc1ccccc1
6	-5%	-1.7%	nt	3%	COc1ccc(N2CCN(C(=O)c3sc4ncn(CC(=O)N5CCCCC5)c(=O)c4c3C)CC2)cc1
7	1%	-1.8%	nt	?	COc1cccc(N2CCN(C(=O)CC(C)(C)CC3=NS(=O)(=O)c4ccccc4N3)CC2)c1
8	13%	1.1%	0	19%	CC(=O)N(C(C)=O)c1ncnc2c1c(-c1ccc(Cl)cc1)nn2C(C)(C)C
9	-3%	-3.0%	3	-1%	COc1ccc(-c2nc(-c3cccc(C)c3)[nH]c(=O)c2C#N)cc1
10	8%	3.7%	-6	-1%	Cn1c(Cc2ccccc2)nnc1SCC(=O)N1CCOCC1
11	20%	?	-2	-8%	O=[N+]([O-])c1cccc(Cl)c1NCCNS(=O)(=O)c1ccc(Cl)cc1
12	-2%	?	-2	-40%	O=C(O)Cc1sc(Nc2ccc(F)cc2)nc1-c1cccs1
13	-9%	?	nt	6%	CCn1cc(/C=C(\NC(=O)c2ccccc2F)C(=O)N2CCCC2)c2ccccc21
14	-21%	?	nt	-14%	CC(C)(C)c1cc(C(=O)N/N=C/c2ccc(-c3ccccc3[N+](=O)[O-])o2)n[nH]1
15	-12%	-4.2%	7	-6%	Cc1ccc2nc(CSc3nnc(Nc4ccccc4C)s3)cc(=O)n2c1

(continued)
entry	Rango release inh	Rango complex inh	GLA inh pH 4.5	miR-21 reporter	canonical_smiles
16	-6%	1.7%	14	-30%	Cc1c(NC(=O)c2cccc(-c3cc4ccccc4oc3=O)c2)cccc1-c1nc2ncccc2o1
17	8%	-0.2%	nt	nt	Cc1ccc(S(=O)(=O)N(C)c2ccc(C(=O)N(CC(C)C)C3CCS(=O)(=O)C3)cc2)cc1 (configuration not stated)
18	1%	0.0%	4	-17%	COC(=O)C1=C(C)Nc2ccc(C)cc2S1
19	-11%	-2.6%	nt	nt	CCOC(=O)[C@H]1[C@H]2COc3ccc(Br)cc3[C@@H]2N2C(=O)c3c(C)cc(C)cc3NC(=O)[C@@]12C
20	11%	0.0%	-1	-11%	Nn1cc(-c2ccccc2)nc1SCC(=O)N1CCN(S(=O)(=O)c2ccccc2)CC1
21	-9%	-3.1%	9	6%	Cc1nc2sc(C(c3ccco3)N3CCN(C(c4ccccc4)c4ccccc4)CC3)c(O)n2n1 (configuration not stated)
22	0%	-1.4%	nt	nt	Cc1ccc(C)c(NC(=O)CN(C)C(=O)c2ccc3c(=O)n4c(nc3c2)CCC4)c1
23	-8%	-4.0%	0	13%	CCCn1c(N)c(C(=O)CSc2nnc(-c3ccco3)n2Cc2ccccc2)c(=O)[nH]c1=O
24	-4%	0.2%	-2	4%	Cc1nn(C)c(C)c1NC(=O)CSc1nc(C2CC2)nc2c1cnn2-c1ccccc1
25	-3%	5.7%	9	-7%	O=C(Nc1ccc2c(c1)OCCO2)c1ccc2nccnc2c1
26	7%	2.3%	nt	nt	CC(OC(=O)Cn1[nH]c(=O)c2ccccc2c1=O)C(=O)Nc1cccc(Cl)c1 (configuration not stated)
27	?	?	-3	1%	CCOC(=O)c1c(/N=C/C2C(=O)CCCC2=O)sc2c1CCCC2
28	20%	6.5%	6	-1%	Cc1ccc(C)n1-c1ccc(NC(=O)c2ccccc2)cc1
29	-22%	?	-13	-1%	CCOc1ccc(CCNC(=O)C2CCN(c3ccc(N4CCOCC4)nn3)CC2)cc1OCC
30	10%	-10%	-2	-7%	COc1ccc(CC(=O)Nc2nccs2)cc1OC

Further entries follow.
entry	Rango release inh	Rango complex inh	GLA inh pH 4.5	miR-21 reporter	canonical_smiles
31	nt	nt	3	-17%	Cc1cc(NS(=O)(=O)c2ccc(NC(=O)c3cc4ccccc4o3)cc2)no1
32	-10%	-0.1%	nt	-3%	O=C(Cn1ncc2c3ccccc3n(Cc3ccccc3F)c2c1=O)NC1CC1
33	11%	-1.6%	3	2%	C=CCSc1nnc(NC(=O)CSc2nc3ccccc3o2)s1
34	1%	2.0%	nt	3%	CCN1CCN(S(=O)(=O)c2ccc(Cl)c(C(=O)N(CC)CC(=O)Nc3ccc(OC)cc3)c2)CC1
35	0%	-1.0%	-22	-1%	Cn1c(SCc2cc(=O)[nH]c(C(C)(C)C)n2)nnc1C(F)(F)F
36	1%	-0.2%	2	-15%	COc1ccc(/C=C2/SC(=O)N(CCNC(=O)C3CCCN3C(=O)c3cccs3)C2=O)cc1 (configuration not stated)
37	nt	nt	0	3%	COc1ccc(N2CCn3c2nc2c3c(=O)n(CCc3ccccc3)c(=O)n2C)c(OC)c1
38	-29%	4.2%	-4	-9%	Cc1nnc(NC(=O)CSc2ccc(-c3ccc(Cl)cc3)nn2)s1
39	-22%	?	6[21.1 µM]	-3%	CCN(C(=O)Cc1c(C(=O)O)n(C)c2ccccc12)c1ccc(F)cc1
40	11%	1.3%	-6	-8%	CCOc1cc(C)c(Cl)cc1S(=O)(=O)NCC1CCCO1 (configuration not stated)
41	-3%	2.6%	0	-3%	COc1ccc(CN2C(=O)C(O)(CC(=O)c3ccc4c(c3)OCO4)c3ccccc32)cc1OC (configuration not stated)
42	-2%	1.1%	nt	0%	O=C(Nc1cccnc1)c1cc(S(=O)(=O)N2CCCCC2)c(Cl)cc1Cl
43	-6%	-1.3%	-10	1%	Cc1ccc(C)c(-n2c(SCC(=O)NCC3CCCO3)nnc2-c2ccoc2C)c1 (configuration not stated)
44	19%	4.7%	-2	nt	CC(C)(C)c1ccc2c(c1)C(c1ccc3c(c1)OCO3)CC(=O)O2 (configuration not stated)
45	13%	0.4%	-3	2%	CCOc1ccccc1N1CC(C(=O)Nc2nccs2)CC1=O (configuration not stated)

Next entries:
entry	Rango release inh	Rango complex inh	GLA inh pH 4.5	miR-21 reporter	canonical_smiles
46	17%	-3.2%	nt	nt	CC1(C)Oc2ccc3ccc(=O)oc3c2[C@H](O)[C@H]1O
47	23%	-0.3%	4	25%	Cc1cc(NC(=O)CSc2nc3ccccc3c(=O)n2C(C)c2ccccc2)no1 (configuration not stated)
48	-3%	3.2%	9	-1%	FC(F)Sc1nnc(-c2cccs2)n1-c1ccccc1
49	10%	-5.3%	nt	nt	COC(=O)c1c(NC(=O)CSc2nccn2C)sc(C)c1C
50	-5%	1.1%	nt	nt	CC1CCC(=NO)C(=NO)C1 (configuration not stated)
51	-2%	-3.2%	nt	3%	Cc1cc(=O)n(C)c2ccc(S(=O)(=O)N3CCOCC3)cc12
52	13%	-0.5%	-6	-35%	CCOc1ccc(NC(=O)Nc2ccc(Br)cn2)cc1
53	9%	-6.5%	-16	-1%	COc1ccc(OC)c(CNc2ccc([N+](=O)[O-])cc2C)c1
54	5%	2.9%	nt	4%	Cc1onc(-c2ccccc2Cl)c1C(=O)N1CCN(C)CC1
55	8%	-0.1%	nt	1%	Cc1ccc(CNC(=O)CN(C)S(=O)(=O)c2ccc3c(c2)n(C)c(=O)c(=O)n3C)cc1
56	-2%	1.7%	nt	0%	NS(=O)(=O)c1ccc(CCNC(=O)c2ccc(=O)[nH]c2)cc1
57	?	?	-26	-11%	Cc1cc2ccccc2n1CCNC(=O)COc1ccc2ccccc2c1
58	-12%	-4.3%	-6	-7%	CCCCN(C(C)=O)c1c(N)n(CCC)c(=O)n(CC(=O)Nc2cc(Cl)cc(Cl)c2)c1=O
59	19%	5.9%	9	-1%	CCOc1ccc(NC(=S)N(CCc2c(C)[nH]c3ccccc23)Cc2cccnc2)cc1
60	-4%	3.2%	8	0%	COc1ccc(OCC(=O)NNC(=O)c2cccnc2)cc1

7 entries from above, ordered by their value in Rango release inh, falling:
entry	Rango release inh	Rango complex inh	GLA inh pH 4.5	miR-21 reporter	canonical_smiles
28	20%	6.5%	6	-1%	Cc1ccc(C)n1-c1ccc(NC(=O)c2ccccc2)cc1
52	13%	-0.5%	-6	-35%	CCOc1ccc(NC(=O)Nc2ccc(Br)cn2)cc1
1	1%	2.0%	6	-1%	O=C(O)C1CCN(C(=O)c2ccco2)CC1
13	-9%	?	nt	6%	CCn1cc(/C=C(\NC(=O)c2ccccc2F)C(=O)N2CCCC2)c2ccccc21
58	-12%	-4.3%	-6	-7%	CCCCN(C(C)=O)c1c(N)n(CCC)c(=O)n(CC(=O)Nc2cc(Cl)cc(Cl)c2)c1=O
39	-22%	?	6[21.1 µM]	-3%	CCN(C(=O)Cc1c(C(=O)O)n(C)c2ccccc12)c1ccc(F)cc1
38	-29%	4.2%	-4	-9%	Cc1nnc(NC(=O)CSc2ccc(-c3ccc(Cl)cc3)nn2)s1

(further entries)
entry	Rango release inh	Rango complex inh	GLA inh pH 4.5	miR-21 reporter	canonical_smiles
61	-1%	2.0%	nt	nt	CN(C(=O)c1cccc(NC(=O)Cc2cccc(NC(=O)C3CCN(C(=O)C4CCC4)CC3)c2)c1)C1CC1
62	2%	6.5%	nt	1%	CCOC(=O)[C@@H]1[C@H]2COc3cc(OC)ccc3[C@@H]2N2C(=O)N(c3ccc(F)cc3)C(=O)[C@]12C
63	0%	11%	nt	1%	Cc1ccc(C(=O)C2=C(O)C(=O)N(Cc3cccnc3)C2c2cccc([N+](=O)[O-])c2)o1 (configuration not stated)
64	?	?	1	-28%	CN1Cc2sc(N)c(C#N)c2CC1(C)C
65	1%	4.1%	nt	nt	CS(=O)(=O)c1ccc(Cl)c(C(=O)OCC(=O)NC2CCCCCCC2)c1
66	8%	-0.6%	-4	-4%	CCCCNC(=O)CS(=O)Cc1nc(-c2cccs2)oc1C (configuration not stated)
67	-7%	-2.2%	-25	-6%	CCC(C)N1C(=O)CN(C2CCCCCC2)C(=O)C1c1ccccc1F (configuration not stated)
68	-7%	-3.0%	nt	-1%	Cc1nnc(SCC(=O)NC2CCCCC2)[nH]c1=O
69	-3%	-0.1%	-16	24%	O=C(COc1ccc(Br)cc1CNC1CCCCC1)NCCc1ccccc1
70	27%	0.3%	4	6%	Cc1ccc(OCC(=O)N2CCN(C(=O)c3ccc([N+](=O)[O-])cc3)CC2)cc1
71	-11%	-2.0%	-3	-8%	O=C(CN(CC1CCCO1)C(=O)CCC(=O)Nc1nccs1)NCc1ccc2c(c1)OCO2 (configuration not stated)
72	14%	3.0%	nt	nt	COc1cc(N)c(Cl)cc1C(=O)OCC(=O)c1ccc2c(c1)NC(=O)CO2
73	22%	2.0%	nt	0%	CC(C)c1ccc(NC2CCCN(C(=O)CCN3Cc4ccccc4C3=O)C2)cc1 (configuration not stated)
74	-18%	?	nt	nt	C=CCc1ccccc1Oc1cc(OC)nc(N)n1
75	-13%	0.3%	0	2%	Cc1ccc(Nc2c(-c3ccccc3O)nc3ncccn23)cc1

The list continues:
entry	Rango release inh	Rango complex inh	GLA inh pH 4.5	miR-21 reporter	canonical_smiles
76	1%	-1.3%	4	-30%	COc1ccc(/C=N/N2C(=N)SCC2=O)cc1
77	9%	3.0%	1	18%	Cn1ccnc1C(=O)c1cc(SCC(=O)NCc2ccccc2)nc2ccccc12
78	1%	-1.8%	-12	-20%	Cc1ccccc1OCCn1c(=O)oc2ccccc21
79	?	?	nt	-16%	O=c1nc2c(-c3cccc(Br)c3)n[nH]n2c2ccccc12
80	0%	2.9%	nt	-1%	CCC(=O)Nc1ccc(S(=O)(=O)Nc2c(C)nc3nc[nH]n3c2=O)cc1
81	?	?	nt	-35%	CCc1ccc(-n2nc3cc(C)c(N)cc3n2)cc1
82	6%	7.0%	nt	nt	COc1ccc(Cl)cc1NC(=O)CN(C)C(=O)c1ccc(COc2ccccc2)cc1
83	-22%	0.7%	7	0%	O=C(NCCc1nnc2ccc(NCc3ccccc3Cl)nn12)c1ccccc1
84	-11%	-0.9%	9	2%	O=C(O)CSCC(=O)NCc1ccc(Cl)cc1Cl
85	-10%	1.8%	1	-11%	Cc1ccnc(SCC(=O)c2cccc([N+](=O)[O-])c2)n1

A portion of the library, so the mix of outcomes need not match the whole.
